High-throughput results deposited in PubChem BioAssay by National Center for Advancing Translational Sciences (NCATS).
TRPML1 ag = qHTS for Agonists of the Human Mucolipin Transient Receptor Potential 1 (TRPML1). Mucolipin-1 (Homo sapiens), Q9GZU1. TRPML1-expressing cells, Ca2+ dye fluorescence, FDSS; host cell line not named in the record; reference of the full effect not given here. activation, % (no concentration beside the values). 410,000 compounds, 0.12% hits; in the data active = activation above about 50%; inconclusive = about 30% to 50%; inactive = below about 30%; also: 0% is about no effect; the text of the record puts the active cut at 80%
Target sequence (Q9GZU1 whole entry, looked up): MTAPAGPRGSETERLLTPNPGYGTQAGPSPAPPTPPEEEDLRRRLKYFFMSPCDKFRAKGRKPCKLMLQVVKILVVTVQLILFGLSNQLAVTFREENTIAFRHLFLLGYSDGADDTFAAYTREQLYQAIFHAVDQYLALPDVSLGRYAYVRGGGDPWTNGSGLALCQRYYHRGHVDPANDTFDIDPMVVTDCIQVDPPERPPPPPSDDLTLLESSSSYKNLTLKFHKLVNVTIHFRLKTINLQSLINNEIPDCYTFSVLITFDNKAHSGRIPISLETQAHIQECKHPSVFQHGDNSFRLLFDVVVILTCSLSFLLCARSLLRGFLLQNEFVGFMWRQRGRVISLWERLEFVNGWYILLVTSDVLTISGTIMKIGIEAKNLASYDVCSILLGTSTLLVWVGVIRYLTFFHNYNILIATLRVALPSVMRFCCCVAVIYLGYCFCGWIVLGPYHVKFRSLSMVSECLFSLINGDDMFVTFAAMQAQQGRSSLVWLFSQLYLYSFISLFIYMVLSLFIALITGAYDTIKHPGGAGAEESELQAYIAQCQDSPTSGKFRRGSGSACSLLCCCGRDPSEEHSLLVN
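Calcium fluorescence on an FDSS kinetic reader gave the read-out. Tet-induced TRPML1-DL cells were plated overnight, dye-loaded (Ca8 with quencher, 45-90 min, room temperature, dark), then read 110 s after compound addition, and again 110 s after 4uM final 54-4 (EC80).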
CtBP-E1A blk = qHTS Assay for Inhibitors of the CtBP/E1A Interaction | CtBP / adenovirus E1A interaction (AlphaScreen) | AlphaScreen GST-E1A/His-CtBP binding, 1536-well; hits give low values; control for the full effect not named in the record | activity change, % (test concentration not listed) | 340,000 compounds, 0.49% hits; in the data active means activity change below about -65%; inconclusive means about -30% to -65%; inactive means above about -30%; also: % is scaled to controls: 0 for no effect and ±100 for the full control effect
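GST-E1A and His-tagged CtBP (125 nM each as 5X stock) were preincubated with pin-transferred compound for 2 h at 37 °C in the dark, then glutathione donor and nickel acceptor beads were added for 1 h before AlphaScreen reading.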
D2 PAM = Beta-Arrestin HTS for Positive Allosteric Modulators of the Human D2 Dopamine Receptor: Potentiators; DiscoveRx D2 beta-arrestin cells, luminescence, 90 min; 100% = 57 uM dopamine signal; potentiation, % (test concentration not listed); 360,000 compounds, 0.23% hits; AID 624464, 2012; active = potentiation of 50% or more; inconclusive = 30% to 50%; inactive = 30% or less;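 also: compound concentration not given in the record; tested on top of an EC20 dose of dopamine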
Target sequence (P14416 whole entry, looked up): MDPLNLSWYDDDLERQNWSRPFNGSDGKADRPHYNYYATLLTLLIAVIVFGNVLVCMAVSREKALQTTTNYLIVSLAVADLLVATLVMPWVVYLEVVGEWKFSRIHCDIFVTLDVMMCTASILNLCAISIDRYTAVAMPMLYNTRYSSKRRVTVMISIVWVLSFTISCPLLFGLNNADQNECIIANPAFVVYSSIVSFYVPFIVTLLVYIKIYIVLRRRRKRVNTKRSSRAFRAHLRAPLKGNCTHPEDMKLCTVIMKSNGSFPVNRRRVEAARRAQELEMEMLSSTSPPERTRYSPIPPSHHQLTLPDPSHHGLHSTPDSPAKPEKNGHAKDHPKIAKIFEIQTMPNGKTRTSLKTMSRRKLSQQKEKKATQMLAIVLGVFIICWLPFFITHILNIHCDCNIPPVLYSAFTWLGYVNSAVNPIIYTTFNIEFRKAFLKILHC
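PathHunter beta-arrestin assay in DiscoveRx D2 cells. Compounds were added with an EC20 of dopamine (50 nM final) for 90 min at 37 deg C. Luminescence was read 1 h after detection reagent, with 57 uM dopamine as the EC100 control.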
TRPV1 potentiator = HTS Assay for Compounds that Act as Potentiators of the Vanilloid Receptor 1 | TRPV1-expressing cells, Fluo-8 calcium influx, capsaicin EC20 potentiation; host cell line not named in the record; control for the full effect not named in the record | 320,000 compounds, 0.02% hits | Transient receptor potential cation channel subfamily V member 1 (Homo sapiens), Q8NER1 | potentiation, % at 8.33 µM; active means potentiation above 80%; inconclusive means 30% to 80%; inactive means below 30%; also: 0% is about no effect
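Cells expressing TRPV1 were dye-loaded with Fluo-8 and read kinetically: 10 s baseline, 3 min after compound (agonist portion), then 2 min after EC20 capsaicin (allosteric enhancer portion). Calcium-bound dye fluorescence at 480/520 nm.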
Six1-Eya2 inh = qHTS Assay for Inhibitors of the Six1/Eya2 Interaction; Homeobox protein SIX1 (Homo sapiens) + Protein phosphatase EYA2 (Homo sapiens), …; AlphaScreen GST-Six1/His-Eya2 binding, biochemical; hits give low values; control for the full effect not named in the record; activity change, % (concentration not given with the values); 360,000 compounds, 0.56% hits; AID 651725, 2012; in the data active = activity change below about -65%; inconclusive = about -30% to -65%; inactive = above about -30%; also: % is scaled to controls: 0 for no effect and ±100 for the full control effect
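Six1/Eya2 binding was read as AlphaScreen signal after compounds were pinned into GST-Six1 plus His-tagged Eya2 (5X stock 250/500 nM) in pH 8.0 Tris/NaCl/TCEP buffer, beads added, then incubated 1 h, 37 C, dark.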
TRPML1 inh = qHTS for Inhibitors of the Human Mucolipin Transient Receptor Potential 1 (TRPML1); AID 624415, 2012; Mucolipin-1 (Homo sapiens), Q9GZU1; 390,000 compounds, 0.02% hits; activity change, negative = inhibition, % (test concentration not listed); TRPML1-inducible cells, Ca2+ dye fluorescence, FDSS; hits give low values; inhibition of EC80 agonist-evoked calcium signal; in the data active means activity change below about -50%; inconclusive means about -30% to -50%; inactive means above about -30%;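 also: stimulus is agonist 54-4 at its EC80 concentration; % is scaled to controls: 0 for no effect and ±100 for the full control effect; compound concentration not given in the record; the text of the record puts the active cut at -80%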
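TRPML1-DL cells, Tet-induced overnight (~16 h, 37 °C) at 1,500 cells/well, were loaded with Ca8 no-wash dye plus quencher for 45-90 min at room temperature. Compounds were pinned during FDSS kinetic reading; agonist 54-4 at EC80 (4 uM final) then added.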
An asterisk follows results filed as active.

Screening O=C(O)c1c[nH]c2nccnc12 returned TRPML1 ag 0.0, CtBP-E1A blk -11.2, D2 PAM -8.9, Six1-Eya2 inh inconclusive and TRPML1 inh -13.0.
For O=C(CSc1nnc(-c2ccc(F)cc2)c2ccccc12)Nc1ccccc1 the results were TRPML1 ag 0.4, CtBP-E1A blk -15.9, D2 PAM -13.7, TRPV1 potentiator -0.6, Six1-Eya2 inh -13.0 and TRPML1 inh -4.1.
`O=[N+]([O-])c1ccc(C[n+]2cccc3ccccc32)cc1` gave TRPML1 ag 2.8, CtBP-E1A blk -2.0, D2 PAM 5.7, TRPV1 potentiator 15.5, Six1-Eya2 inh 0.0 and TRPML1 inh 3.7.
For CC(C)=CCN1CCN(Cc2cccc3nonc23)CC1CCO (stereo unspecified) the results were TRPML1 ag 4.0, D2 PAM -14.1, TRPV1 potentiator 5.7, Six1-Eya2 inh -3.8 and TRPML1 inh -6.3.
Screening O=C(NC(=S)Nc1ccc(S(=O)(=O)NC2CCCCC2)cc1)c1cccs1 returned TRPML1 ag -0.4, CtBP-E1A blk -5.7, D2 PAM -13.0, TRPV1 potentiator 20.1, Six1-Eya2 inh -8.1 and TRPML1 inh 6.4.
Screening OCC[C@H]1C[C@H](O)[C@@H](O)[C@]2(CCc3ccccc3CO2)O1 returned TRPML1 ag -0.1, CtBP-E1A blk -15.0, D2 PAM -2.6, TRPV1 potentiator 11.6, Six1-Eya2 inh 1.2 and TRPML1 inh -10.4.
For COc1ccc(N2CCC(CNC(=S)Nc3c(C)cc(C)cc3C)C2)cc1 (stereo unspecified) the results were TRPML1 ag -0.2, CtBP-E1A blk -11.6, D2 PAM -12.0, TRPV1 potentiator 6.0, Six1-Eya2 inh inconclusive and TRPML1 inh -2.2.
`Cc1ccc(-n2c(=S)sc3c(=O)n(-c4ccc(F)cc4)c(SCC(=O)O)nc32)cc1C` gave TRPML1 ag 0.6, CtBP-E1A blk -9.9, D2 PAM -1.2, TRPV1 potentiator -20.8, Six1-Eya2 inh -8.9 and TRPML1 inh 10.3.
COCCN1C[C@@H](CO)O[C@@H](n2cnc3c(NCCCO)ncnc32)C1 was read as TRPML1 ag -0.5, CtBP-E1A blk -18.8, D2 PAM -5.1 and Six1-Eya2 inh 11.8.
For O=C(Nc1ccc2[nH]c(=O)[nH]c2c1)c1ccc(Cl)c(Cl)c1 the results were TRPML1 ag -0.9, D2 PAM -0.3, TRPV1 potentiator 16.0, Six1-Eya2 inh 0.2 and TRPML1 inh 13.3.
C=CCC1NS(=O)(=O)OC(COC)C1C (stereo unspecified) was read as TRPML1 ag -0.4, CtBP-E1A blk -15.3, D2 PAM -6.9, TRPV1 potentiator -1.1, Six1-Eya2 inh 6.0 and TRPML1 inh 25.2.
For O=C(COc1ccc(Cl)cc1Cl)NCCCCc1ccccc1 the results were TRPML1 ag 0.6, CtBP-E1A blk 28.2, D2 PAM -0.4, TRPV1 potentiator -2.8, Six1-Eya2 inh 14.8 and TRPML1 inh 0.3.
`Cc1nc(CCNC(=O)Cc2ccc(F)cc2)cs1` gave TRPML1 ag -0.2, CtBP-E1A blk 1.3, D2 PAM 2.9, TRPV1 potentiator -2.4, Six1-Eya2 inh 3.4 and TRPML1 inh 16.8.
Screening Nc1cc[n+](CC(=O)c2ccc3c(c2)OCCO3)cc1 returned TRPML1 ag 2.9, CtBP-E1A blk 1.4, D2 PAM -2.4, TRPV1 potentiator 5.3, Six1-Eya2 inh 5.6 and TRPML1 inh 6.4.
CCCCn1c(N)c(N(C)C(=O)c2cccc(-n3cnnn3)c2)c(=O)[nH]c1=O was read as TRPML1 ag 0.0, CtBP-E1A blk 0.5, D2 PAM -4.8, Six1-Eya2 inh 9.9 and TRPML1 inh -8.6.
Cc1ccc(S(=O)(=O)NNC(=O)c2cccs2)c(C)c1 was read as TRPML1 ag -1.0, CtBP-E1A blk -9.8, D2 PAM -4.9, TRPV1 potentiator -7.5, Six1-Eya2 inh 0.5 and TRPML1 inh -20.0.
For O=C1CCCC2=C1C1c3ccccc3C(=O)N1c1ccc(C(=O)c3ccccc3)cc1N2 (stereo unspecified) the results were TRPML1 ag 2.2, CtBP-E1A blk -14.9, D2 PAM -3.7, TRPV1 potentiator -10.4, Six1-Eya2 inh -13.6 and TRPML1 inh 3.9.
Screening O=C(c1cccc(Br)c1)N1CCN(S(=O)(=O)N2CCOCC2)CC1 returned TRPML1 ag 0.1, CtBP-E1A blk -1.7, D2 PAM -0.4, TRPV1 potentiator -0.2, Six1-Eya2 inh 4.8 and TRPML1 inh 7.4.
For O=C(NC1CCCCCC1)c1ccc(CS(=O)(=O)Cc2ccccc2F)o1 the results were TRPML1 ag -0.3, CtBP-E1A blk 5.2, D2 PAM 3.3, TRPV1 potentiator -5.1, Six1-Eya2 inh 0.1 and TRPML1 inh 16.0.
COc1cccc(CC(NC(C)=O)C(=O)NC2CCN(S(=O)(=O)c3ccc(NC(C)=O)cc3)CC2)c1 (stereo unspecified) was read as TRPML1 ag -0.1, CtBP-E1A blk -14.5, D2 PAM -5.4, TRPV1 potentiator 0.8, Six1-Eya2 inh -1.0 and TRPML1 inh -15.2.
Screening COc1ccc(CN(C)C(=O)/C=C/c2ccc(S(=O)(=O)N3CCCCCC3)cc2)cc1 returned TRPML1 ag 2.1, CtBP-E1A blk -3.5, D2 PAM 14.5, TRPV1 potentiator -13.2, Six1-Eya2 inh -1.1 and TRPML1 inh 42.1.
`Cc1ccc(NC(=O)CN(C)CC(=O)Nc2ccc(N3CCOCC3)cc2)c([N+](=O)[O-])c1` gave TRPML1 ag 0.7, CtBP-E1A blk 3.6, D2 PAM -5.6, TRPV1 potentiator inconclusive, Six1-Eya2 inh 3.6 and TRPML1 inh 28.3.
Screening CC1CN(c2nc3ccccc3cc2-c2ccccc2)CC(C)O1 (stereo unspecified) returned TRPML1 ag 0.4, CtBP-E1A blk 23.3, D2 PAM 1.9, TRPV1 potentiator -4.3, Six1-Eya2 inh 10.5 and TRPML1 inh -9.2.
`COc1cc(/C=C2\C(=N)N3N=C(S(C)(=O)=O)SC3=NC2=O)ccc1OC(=O)c1ccco1` gave TRPML1 ag 0.6, D2 PAM -5.9, TRPV1 potentiator -10.9, Six1-Eya2 inh -14.4 and TRPML1 inh 19.3.

2 consecutive records out of the list so far, quoted:
Screening CC1CN(c2nc3ccccc3cc2-c2ccccc2)CC(C)O1 (stereo unspecified) returned TRPML1 ag 0.4, CtBP-E1A blk 23.3, D2 PAM 1.9, TRPV1 potentiator -4.3, Six1-Eya2 inh 10.5 and TRPML1 inh -9.2.
`COc1cc(/C=C2\C(=N)N3N=C(S(C)(=O)=O)SC3=NC2=O)ccc1OC(=O)c1ccco1` gave TRPML1 ag 0.6, D2 PAM -5.9, TRPV1 potentiator -10.9, Six1-Eya2 inh -14.4 and TRPML1 inh 19.3.

Further entries follow.
For CCCCCSc1nnc2c(n1)OC(c1cccn1C)N(C(C)=O)c1ccccc1-2 (stereo unspecified) the results were TRPML1 ag 0.5, CtBP-E1A blk -3.0, D2 PAM -12.5, TRPV1 potentiator 6.3, Six1-Eya2 inh inconclusive and TRPML1 inh -9.6.
For CCC(=O)O[C@]1(C(=O)CCl)[C@@H](C)C[C@H]2[C@@H]3CCC4=CC(=O)C=C[C@]4(C)[C@@]3(F)[C@@H](O)C[C@@]21C the results were TRPML1 ag 0.7, CtBP-E1A blk 7.4, D2 PAM 9.5, TRPV1 potentiator -4.3, Six1-Eya2 inh -0.3 and TRPML1 inh 0.2.
`COc1ccc(CN2CCNC(=O)C2CC(=O)N2CCCN(C(C)=O)CC2)cc1OC` (stereo unspecified) gave TRPML1 ag -0.6, CtBP-E1A blk 1.1, D2 PAM -12.2, TRPV1 potentiator -0.4, Six1-Eya2 inh 0.6 and TRPML1 inh -26.9.
For CN(CC(=O)Nc1ccccc1Cl)C(=O)CSc1ncc(C(F)(F)F)cc1Cl the results were TRPML1 ag 1.6, CtBP-E1A blk 4.9, D2 PAM -14.7, TRPV1 potentiator -12.7, Six1-Eya2 inh 5.8 and TRPML1 inh 12.6.
`CCCCNc1ncnc2c1cnn2Cc1ccc(Cl)cc1` gave CtBP-E1A blk 4.2, D2 PAM 17.3, TRPV1 potentiator 11.4 and Six1-Eya2 inh -11.6.
Screening O=C(c1c(F)cccc1F)N1CCN(c2ccccc2F)CC1 returned TRPML1 ag 0.0, CtBP-E1A blk 2.1, D2 PAM -4.4, TRPV1 potentiator -11.6, Six1-Eya2 inh 3.3 and TRPML1 inh -12.5.
Screening COC(=O)c1sc(NC(=O)CSc2nnc(C(C)C)n2C)nc1C returned TRPML1 ag 0.3, CtBP-E1A blk 0.1, D2 PAM -0.4, TRPV1 potentiator 7.9, Six1-Eya2 inh -0.4 and TRPML1 inh -3.3.
Screening COc1cccc(-c2nc3c(c(SCC(=O)N4CCOCC4)n2)Cc2c(CO)cnc(C)c2O3)c1 returned TRPML1 ag 0.0, CtBP-E1A blk -15.3, D2 PAM 17.3, TRPV1 potentiator -6.2, Six1-Eya2 inh -19.7 and TRPML1 inh 14.6.
Screening CCN(CC)S(=O)(=O)c1cc(NC(=O)C2CCN(c3ncnc4sc(C)c(C)c34)CC2)ccc1Cl returned TRPML1 ag -0.3, CtBP-E1A blk -4.1, D2 PAM -25.0, TRPV1 potentiator -0.6, Six1-Eya2 inh -18.0 and TRPML1 inh -14.3.
CCOc1ccc(C(=O)Nc2ccc3c(c2)OCCO3)cc1 was read as TRPML1 ag 0.2, CtBP-E1A blk 6.1, D2 PAM -1.0, TRPV1 potentiator -4.5, Six1-Eya2 inh 4.2 and TRPML1 inh 5.2.
Screening CCc1nnc(NC(=O)c2ccc(S(=O)(=O)N3CCCCC3)cc2)s1 returned TRPML1 ag 0.1, CtBP-E1A blk 0.0, D2 PAM 3.4, TRPV1 potentiator -5.0, Six1-Eya2 inh -2.8 and TRPML1 inh 45.9.
`CC(C)NC(=O)C1CCN(C(=O)c2cc3sccc3n2Cc2ccc(F)cc2)CC1` gave TRPML1 ag -0.1, CtBP-E1A blk 51.0, D2 PAM -6.2, TRPV1 potentiator 18.2, Six1-Eya2 inh 25.1 and TRPML1 inh 2.0.
`O=C(/C=C/c1ccc(Cl)cc1)N1CCN(c2ccccn2)CC1` gave TRPML1 ag 0.9, CtBP-E1A blk -3.6, D2 PAM -14.3, TRPV1 potentiator 3.2, Six1-Eya2 inh 13.2 and TRPML1 inh -4.6.
`Cn1c(SCC(=O)c2ccccc2)ncc(C(=O)Nc2ccccc2)c1=O` gave TRPML1 ag 0.3, CtBP-E1A blk 11.1, D2 PAM -3.0, TRPV1 potentiator 5.7, Six1-Eya2 inh 0.4 and TRPML1 inh 37.2.
`Cc1c(Cc2ccccc2)c(=O)oc2c(C)c(OCC(=O)N[C@@H](Cc3ccccc3)C(=O)O)ccc12` gave CtBP-E1A blk -7.6, D2 PAM -0.7, TRPV1 potentiator -6.1 and Six1-Eya2 inh -17.6.
